Bioassay records (PubChem BioAssay)
Calb FLC – C. albicans growth modulation with fluconazole; C. albicans CaCi-2 (fluconazole-resistant clinical isolate) + fluconazole, Alamar Blue growth, 48 h; 300,000 tested, 0.57% active; growth inhibition, % (test concentration not listed);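 active = most replicates above 75%; inconclusive = exactly half above 75%; inactive = most below 75%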;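 also: all wells also contain fluconazole at 8 µg/ml as a sub-toxic cotreatment; 0% = median of DMSO wells and 100% = median of geldanamycin control wells; wells of about 8 µL received 7.5 nL stock; the first replicate is given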
Beta cell apopt – blocks beta cell apoptosis. INS-1E cytokine-induced death, ATP luminescence, 48 h; percent of positive-control rescue, neutral wells zero. protection from apoptosis, % (concentration not given with the values). 300,000 tested, 0.8% active;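 active = all replicates at 75% or more, or half of them and the mean; inconclusive = half reach 75% but not the mean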;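 also: 0% = cytokine-treated negative control wells and 100% = positive control rescue; higher means more ATP so stronger rescue from cytokine killing; wells of about 40 µL received 100 nL stock; the first replicate is given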
RanGTP-Imp inh – inhibitors of RanGTP-importin-beta interaction, primary screen, biochemical, FRET, CFP-Ran, YFP-importin-beta, homogeneous; cell-free CFP-Ran/YFP-importin-beta FRET ratio; inhibition, % (test concentration not listed); 300,000 tested, 1.1% active; AID 2216;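 active = most replicates above 15%; inconclusive = exactly half above 15%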;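 also: 0% = DMSO wells and 100% = Ran loaded with GDP instead of GTP; wells of about 40 µL received 100 nL stock; the first replicate is given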
T cruzi repl – blocks replication of Trypanosoma cruzi; 300,000 tested, 1.4% active; inhibition, % (no concentration beside the values); AID 1885; T. cruzi beta-gal in NIH3T3, luminescence, 90 h;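 active = mean inhibition across valid replicates above about 55%, limit read from the data; inconclusive = mean below that limit but half or more replicates reach it; inactive = mean below it, under half of replicates reach it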;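 also: signal also drops with host cell toxicity which is not excluded here; 0% = plate median of DMSO wells and 100% = zero luminescence signal; higher percent means less beta-gal luminescence so fewer parasites; stock transfer was 50 nL into about 50 µL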
Vif TR-FRET – HIV-1 Vif–A3G interaction blockers – biochemical, TR-FRET, GST-Vif 1-94, biotin-A3G peptide, dose response retest, primary screen (AID 1117319); 260,000 tested, 0.57% active; inhibition, %, or IC50 in µM where a hit was titrated; TR-FRET GST-Vif / biotin-A3G peptide binding; higher % means a stronger effect; test concentration not given here; strong numbers were not always called active;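 active = above the screen mean plus three standard deviations and confirmed in dose response; inconclusive = results disagree or hit not tested in dose response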;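 also: Vif residues 1-94 fused to GST binding biotinylated APOBEC3G peptide 110-148; 0% = full assay without inhibitor and 100% = GST in place of GST-Vif; retest series ran down from 100 µM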
A1 inh – inhibitors of the anti-apoptotic protein A1, read as caspase activation | MEF A1-2A-BIM cells, Caspase-Glo 3/7 luminescence, 3 h; percent of clofoctol response, vehicle zero | caspase activation, % (test concentration not listed) | 330,000 tested, 0.066% active;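 active = over half of replicate activation scores above 10%, or exactly half above 10 with the replicate mean above 10; inconclusive = replicate mean below 10 yet half the replicates above 10; inactive = over half of replicates below 10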;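 also: wells of about 30 µL received 50 nL stock; many hits fall short of the cut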
Ecoli rRNA inh – selective bacterial rRNA inhibition in E. coli; E. coli WT GFP vs humanized-ribosome RFP mutants, fluorescence, 24 h; stronger effect = lower value; DMSO median 0, no signal -100; GFP signal change (wild-type ribosome), % (test concentration not listed); 350,000 tested, 1.6% active; AID 720706;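 active = significant combined selectivity score with lowered wild-type GFP, culture density cut under 30%, mutant RFP and density less affected; inactive = any of these conditions unmet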; also: one replicate is shown; some compounds called inactive have numbers as strong as hits
Ecoli rRNA inh OD600 – also measured in Ecoli rRNA inh; calls as there; OD600 change, %; measured here: OD600 growth;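 optical density of the mix in the first replicate; 0 = DMSO median and -100 = no signal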
Ecoli rRNA inh RFP – also measured in Ecoli rRNA inh; calls as there; RFP signal change, %; measured here: RFP humanized mutant strains;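 first replicate; 0 = DMSO median and -100 = no signal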
Active calls of the source: *; ? = inconclusive; / = not tested or not shown; & = joins results of further samples. A portion of the library. The share of hits here may be higher or lower than overall.

SMILES | Calb FLC | Beta cell apopt | RanGTP-Imp inh | T cruzi repl | Vif TR-FRET | A1 inh | Ecoli rRNA inh | Ecoli rRNA inh OD600 | Ecoli rRNA inh RFP
CCOc1ccc(-n2c(SCC(=O)Nc3ccc(OC)cc3OC)nc3c(c2=O)SCC3)cc1 | / | / | / | / | -10.6% | 1.6 | / | / | /
COc1ccc(S(=O)(=O)N2CCCN(CC(=O)Nc3ccc4c(c3)OCO4)CC2)cc1 | / | / | / | / | 1.9% | 0.5 | / | / | /
Cc1onc(-c2ccccc2Cl)c1C(=O)Nc1cccc(-c2cn3cccnc3n2)c1 | / | / | / | / | 0.0% | -0.6 | / | / | /
O=C(Cc1ccc(Cl)cc1)Nc1ccccc1CO | / | / | / | / | -5.4% | -0.1 | / | / | /
O=C(c1ccc2c(=O)n(Cc3ccco3)c(=S)[nH]c2c1)N1CCN(c2ccccc2)CC1 | / | / | / | / | 2.5% | -0.5 | / | / | /
Cc1cc(NC(=O)CSc2nc3ccsc3c(=O)n2NC(=O)c2ccccc2)no1 | / | / | / | / | -2.9% | -0.4 | / | / | /
CC(C)(C)NS(=O)(=O)c1cccc(S(=O)(=O)c2cccc(S(=O)(=O)NC(C)(C)C)c2)c1 | / | / | / | / | 5.3% | -0.5 | / | / | /
CCC(C)(C)n1nnnc1C(c1cc2ccc(OC)cc2[nH]c1=O)N1CCN(C2CCCCC2)CC1 (configuration not stated) | / | / | / | / | 5.8% | 0.1 | / | / | /
O=C(CSc1nnc(Cn2c(=O)sc3ccccc32)n1CCc1ccccc1)N1CCOCC1 | / | / | / | / | 16.0% | 1.2 | / | / | /
CCOC(=O)CNC(=O)CSc1nnc(Cn2c(=O)sc3ccccc32)n1-c1ccccc1C | / | / | / | / | 0.1% | -0.5 | / | / | /
CN(C)c1ccc(/C=N/N=C2/NC(=O)/C(=C/c3ccc([N+](=O)[O-])cc3)S2)cc1 | / | / | / | / | 10.6% | -5.9 | / | / | /
Cc1ccnc2ccc(-c3nc4ccccc4o3)cc12 | / | / | / | / | 24.9% | -9.6 | / | / | /
COc1ccccc1Oc1ccc2c(c1)C(=O)N(c1ccc(O)cc1)C2=O | / | / | / | / | 0.8% | 1.7 | / | / | /
COCCNC(=O)Cn1nc(C(F)(F)F)cc1C | / | / | / | / | 5.2% | 0.3 | / | / | /
CCOC(=O)CSc1nnc(CNC(=O)c2ccc(S(=O)(=O)N3CCCCC3)cc2)n1C | / | / | / | / | 1.3% | -0.8 | / | / | /
Cc1ccc(-c2[nH]nc3c2C(c2ccccc2OC(=O)N2CCOCC2)C(C#N)=C(N)O3)cc1 (configuration not stated) | / | / | / | / | 12.2% | -0.1 | / | / | /
COc1cc(C(c2sc3nc(C)nn3c2O)N2CCC3(CC2)OCCO3)cc(OC)c1OC (configuration not stated) | / | / | / | / | 5.3% | 0.8 | / | / | /
Cc1cc(NC(=O)CCC(=O)N(CC(=O)NC2CCCC2)Cc2ccccc2Cl)no1 | / | / | / | / | -11.7% | -0.1 | / | / | /
COc1ccc(Br)cc1CNc1ccc(O)cc1 | / | / | / | / | ? | 0.6 | / | / | /
Fc1ccccc1/C=C1\CCCC2=C1Nc1ncnn1C2c1ccccc1F (configuration not stated) | / | / | / | / | 38.3µM* | -0.2 | / | / | /
O=C1CCC(C(=O)N(c2ccccc2)C2(C(=O)NC3CCCCC3)CCCCC2)N1 (configuration not stated) | / | / | / | / | 9.7% | 0.1 | / | / | /
Cc1ccc(OCCN2CCN(C(=O)CCC(=O)Nc3nnc(C)s3)CC2)cc1 | / | / | / | / | -2.0% | -0.1 | / | / | /
Cc1ccc(-n2ncc3c(NCC4CCCO4)ncnc32)c(C)c1 (configuration not stated) | / | / | / | / | -6.1% | 0.5 | / | / | /
Nc1nc(N2CCN(C/C=C/c3ccccc3)CC2)nc2ccccc12 | / | / | / | / | 2.6% | -0.6 | / | / | /
Fc1ccc(CNc2ccc(CNc3ncn[nH]3)cc2)cc1 | -20.4 | / | / | 3.1 | 4.3% | / | / | / | /
O=C(OCC(=O)N1CCOCC1)C(c1ccccc1)c1ccccc1 | / | / | 6.7 | -1.6 | 1.5% | / | / | / | /
Cc1sc2nc(SCc3nc(-c4ccccc4)no3)n(-c3ccccc3)c(=O)c2c1C | / | / | -0.1 | 24.1 | -1.4%&6.0% | / | / | / | /
O=C(c1ccc2nc(-c3ccco3)c(-c3ccco3)nc2c1)N1CCN(c2ccccc2)CC1 | 10.3 | / | 23.2* | / | ? | / | / | / | /
COc1cc(C)c(Cl)cc1S(=O)(=O)NCc1ccncc1 | -0.2 | / | -5.1 | / | 32.3% | / | / | / | /
COc1ccc(-c2cc(C(F)(F)F)n3nc(C(=O)N4CCOCC4)nc3n2)cc1 | -2.8 | / | -1.9 | / | 3.6% | / | / | / | /
CCCCC(=O)NCCc1cc2ccc(OC)cc2[nH]c1=O | 3.7 | / | / | / | 23.1% | 0.9 | / | / | /
CCOC(=O)c1c(C)cccc1OCC(N)=O | 1.0 | / | / | / | 21.0% | -0.5 | / | / | /
CC1Cc2ccccc2N1C(=O)CCNS(=O)(=O)c1cccc2nsnc12 (configuration not stated) | 12.8 | / | / | / | 31.9% | 0.1 | / | / | /
O=C(CCN1CCN(CC(=O)Nc2ccccc2F)CC1)Nc1ccccc1F | -2.3 | / | / | / | 15.6% | 0.3 | / | / | /
Cc1cc(C)nc(SCc2csc(N)n2)n1 | 6.0 | / | / | / | 19.4% | 0.3 | / | / | /
Cc1noc(C)c1NC(=O)Nc1ccc2c(c1)C(=O)N([C@H](C)CO)C[C@H](C)[C@@H](CN(C)S(=O)(=O)c1ccccc1)O2 | / | -1.0 | / | / | / | -0.9 | 1.2&15.7 | -2.2&19.8 | -1.6&2.8
O=C(NC[C@H]1CCCO1)c1cccc2c1C(=O)c1ccc(-c3ccc(F)cc3OCc3ccccc3)cc1S2(=O)=O | / | 4.2 | / | / | / | -0.6 | 13.0 | 10.9 | 0.7
CCc1c(C2(O)CCCCC2)[nH]c2cnccc12 | / | 4.8 | / | / | / | 0.2 | 11.7 | 15.8 | -0.3
Cc1ccc(S(=O)(=O)N2[C@@H](c3cccc(Cl)c3)C(C(=O)O)=CC[C@H]2c2cccc(C)c2)cc1 | / | -2.2 | / | / | / | -0.7 | -22.6* | -9.1* | 0.6*
N#CCCCc1cc2cc(F)ccc2cn1 | / | -15.0 | / | / | / | 0.1 | 5.5 | 15.5 | -0.5
CN(C(=O)c1ccc(NC(=O)Cc2ccc(NC(=O)C3CCN(C(=O)C4CCC4)CC3)cc2)cc1)C1CC1 | / | -0.7 | / | / | / | -0.1 | 11.4 | 13.8 | -4.0
O=C(C[C@H]1C/C=C\CC[C@@H](Cc2ccc(F)cc2)C(=O)O[C@@H](c2ccccc2)CNC1=O)N[C@H](CO)Cc1ccccc1 | / | -0.2 | / | / | / | 1.9 | -0.2 | -6.7 | -1.3
OCC(CBr)(CBr)CBr | / | 3.3 | / | / | / | 0.3 | 1.1 | -0.3 | -0.1
O=C(Nc1ccc(F)c(Cl)c1)C1CCCCC1 | / | -7.8 | / | / | / | -0.6 | -11.9 | -21.4 | -0.6
CCOc1ccc(/C=N/NC(=O)c2ccccc2Cl)cc1CN1CC2CC(C1)c1cccc(=O)n1C2 (configuration not stated) | / | 0.9 | / | / | / | 0.4 | 3.5 | -2.5 | 3.5
O=C1OC(=O)c2c(Br)c(Br)c(Br)c(Br)c21 | / | 0.6 | / | / | / | 0.0 | 3.9 | 1.1 | -2.3
CC(=O)Nc1ccccc1C | / | -4.5 | / | / | / | 0.2 | 0.1 | 6.9 | 1.3
Cn1c(-c2ccsc2)c(-c2cccs2)c2cc(-c3ccc4[nH]ccc4c3)ccc21 | / | 5.4 | / | / | / | -1.6 | 7.2 | 15.2 | 12.1
CN(Cc1ccccc1)C(=O)c1nc[nH]c1C(=O)N1CCN(c2ccccc2)CC1 | / | 1.0 | / | / | / | 0.2 | 7.5 | 6.4 | -0.1
CC(C)C[C@@H](CNC(=O)OC(C)(C)C)NC(=O)c1nc[nH]c1C(=O)N[C@@H](CC(C)C)C(=O)CNC[C@H](CC(C)C)NC(=O)c1nc[nH]c1C(=O)N[C@@H](Cc1c[nH]c2ccccc12)C(=O)OC(C)(C)C | / | 0.2 | / | / | / | 1.5 | -2.3 | -6.1 | -2.2
CC(=O)OC(C)=O | / | -6.2 | / | / | / | 0.2 | 0.1 | -3.4 | -2.3
CCOC(=O)[C@@H]1[C@H]2COc3ccc(Br)cc3[C@@H]2N2C(=O)N(c3ccc(C)cc3)C(=O)[C@@]12C | / | -13.7 | / | / | / | 0.9 | -5.7 | -19.8 | -3.1
O=C(CCNS(=O)(=O)c1ccc2nsnc2c1)N1CCN(c2ccncc2)CC1 | / | -9.7 | / | / | / | 0.3 | 10.9 | 6.3 | 2.3
CC(=O)NC(C)c1cc(F)c2cccnc2c1O (configuration not stated) | / | -7.8 | / | / | / | 2.2 | 21.1 | 2.4 | 5.3
O=[N+]([O-])c1cc(C(F)(F)F)ccc1Cl | / | -6.4 | / | / | / | 0.4 | 0.8 | 1.9 | 0.3
Cc1ccc2c(c1)C(=O)C(=O)N2Cc1ccc(F)cc1 | / | 0.2 | / | / | / | 1.5 | 8.7 | 2.9 | 15.5
OCC[C@H]1C[C@H](O)[C@@H](O)[C@]2(CCc3ccccc3CO2)O1 | / | 5.5 | / | / | / | 0.0 | 18.1 | 21.1 | 3.3
CCOc1ccc(/C=N/NC(=O)Cc2ccccc2)cc1CN1CC2CC(C1)c1cccc(=O)n1C2 (configuration not stated) | / | 2.9 | / | / | / | -0.6 | -8.8 | -6.4 | 2.5
CCCCCCSc1cc(-c2nc3cnccn3c2NCCCC)ccc1OC | / | -5.7 | / | / | / | -0.2 | 2.0 | 8.5 | 38.6
O=C(O)Cc1cccc2ccccc12 | / | 0.2 | / | / | / | -0.1 | -5.9 | -0.1 | -2.0
CCOC(=O)[C@@H]1[C@H]2COc3cc(OC)ccc3[C@H]2N2C(=O)N(c3ccc(OC)cc3)C(=O)[C@]12C | / | -6.1 | / | / | / | 0.0 | 2.4 | 3.5 | -1.0
COc1ccc(NC(=O)COC(=O)c2cc3c(s2)CCC3)cc1 | / | -2.5 | / | / | / | 0.8 | 19.0 | 17.6 | -0.2
C#CCOCCOCCOCCNc1nc(N2CCN(C(=O)[C@H](CCCN=C(N)N)n3cc(C(N)[C@@H](C)CC)nn3)CC2)nc(N2CCN(C(=O)[C@H](CC(N)=O)n3cc([C@@H](N)C(C)C)nn3)CC2)n1 (some centres not stated) | / | -6.4 | / | / | / | -0.3 | 3.5 | 22.3 | 2.2
